# LASV entry inh = Lassa virus entry inhibition; Lassa virus pseudotype entry inhibition, cell reporter; control for the full effect not named in the record; Potency, µM (top dose mostly 37.9 µM), inactives show top-dose activity change, negative = inhibition, actives largely listed as inhibitors; hit rate 1.2% among 300,000; active means well fitted inhibition curve with a large enough effect; inconclusive means small, poorly fitted or top-dose-only effect, or effect the other way; inactive means flat fitted curve, though single readings scatter; tested in HEK293 cells; note: % is set by controls: 0 for no effect and ±100 for the full control effect; nearly all actives have a fitted effect of over 50% in size; luciferase read-out
# NS1 inh = blocks influenza NS1 protein function; S. cerevisiae slowed by influenza A NS1, growth recovery by OD600; Potency, µM (highest dose often 46.1 µM), inactives show at the top dose activity, positive = more growth; hit rate 0.4% among 270,000; AID 2326; note: actives are rising curves; nearly all actives have a fitted effect of over 50% in size
#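 Compounds were scored for reversing the slow growth caused by influenza A NS1 in S. cerevisiae, measured by optical density at 600 nm. Assay medium contained 2% galactose at pH 6.0; NS1-free yeast of the same strain were the positive control.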
# MARV entry inh = blocks Marburg virus binding to or entry into cells; Marburg virus pseudotyped entry inhibition, cell reporter; control for the full effect not named in the record; about a third of the inactives were read at about 46 µM; Potency, µM (highest dose often 37.8 µM), for inactives: at the top dose activity change, negative = inhibition, usual class: inhibitors; hit rate 1.8% among 300,000; active = well fitted inhibition curve with a large enough effect; inconclusive = small, poorly fitted or top-dose-only effect, or effect the other way; inactive = flat fitted curve, though single readings scatter; tested in HEK293 cells; about a fifth of its hits are not listed in these tables; note: % is set by controls: 0 for no effect and ±100 for the full control effect; luciferase read-out
# RE007 growth inh = less growth of the S. pombe RE007 Vpr strain | S. pombe RE007 Vpr strain, BacTiter-Glo ATP luminescence, 24 h; control for the full effect not named in the record | Potency, µM (series often up to 92.2 µM), without a hit: at the top dose activity change, negative = less growth | hit rate 0.21% among 360,000 | AID 651644; active = well fitted falling curve with a large enough effect; inconclusive = small, poorly fitted or top-dose-only effect; inactive = no such curve, though single readings can be large or run the other way;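 note: % is set by controls: 0 for no effect and ±100 for the full control effect; nearly all actives have a fitted effect of over 50% in size; the assay follows cell death caused by Vpr and the record does not say whether a fall means rescue or toxicity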
#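 Fission yeast RE007 carrying one integrated HIV-1 vpr copy, seeded at OD 0.01 in PMG+AL medium with 23 nL pinned compound. Grown 24 h at 30 degrees; viability read by BacTiter-Glo luminescence after 5 min.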
# SARS PLpro yeast = SARS-CoV PLP inhibition in yeast. S. cerevisiae expressing SARS-CoV PLpro, growth rescue; control for the full effect not named in the record. hit rate 0.19% among 330,000. Potency, µM (titrated, usually from 32.9 µM), without a hit: at the top dose activity, positive = growth rescue; note: 0% is about no effect; nearly all actives have a fitted effect of over 55% in size; growth read by luminescence after 48 h
# Cruzain noTriton = blocks cruzain activity in detergent-free assay; P25779; purified cruzain, Z-FR-AMC fluorescence, no detergent; Potency, µM, for the others: max response, negative = inhibition, usual class: inhibitors; hit rate 2.3% among 200,000; active = well fitted curve in the direction sought with a large enough effect; inconclusive = small, poorly fitted or top-dose-only effect, or another doubt; inactive = no such curve, though single readings can be large; an effect the other way counts as inactive or inconclusive;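 note: plate controls were enzyme without inhibitor for no effect and buffer without enzyme for full effect; nearly all actives have a fitted effect of over 40% in size; top concentration of the series not given in the record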
# Target sequence (P25779 123-467 limits assumed): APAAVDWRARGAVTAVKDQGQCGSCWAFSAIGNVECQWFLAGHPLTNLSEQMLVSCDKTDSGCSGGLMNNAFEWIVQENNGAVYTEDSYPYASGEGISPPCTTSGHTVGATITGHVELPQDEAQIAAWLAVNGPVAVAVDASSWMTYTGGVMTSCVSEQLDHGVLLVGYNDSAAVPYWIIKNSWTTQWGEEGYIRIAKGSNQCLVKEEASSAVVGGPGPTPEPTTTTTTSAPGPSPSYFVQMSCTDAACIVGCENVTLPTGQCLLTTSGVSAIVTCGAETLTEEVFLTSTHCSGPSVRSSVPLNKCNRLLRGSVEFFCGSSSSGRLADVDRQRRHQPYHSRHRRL
#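 Detergent-free condition (0.00005% Triton X-100) in acetate buffer pH 5.5 with DTT. 1.5 nM enzyme and compound were pre-mixed 15 min, then 2 uM Z-FR-AMC substrate added; reaction progress from fluorescence change between first and third reads (60 s).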
# Cruzain inh Det = blocks cruzain activity in presence of Triton detergent; P25779; purified cruzain, Z-FR-AMC fluorescence, 0.01% Triton; Potency, µM, inactives show max response, negative = inhibition, most hits filed as inhibitors; hit rate 0.43% among 200,000; active = well fitted curve in the direction sought with a large enough effect; inconclusive = small, poorly fitted or top-dose-only effect, or another doubt; inactive = no such curve, though single readings can be large; an effect the other way counts as inactive or inconclusive;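 note: plate controls were neutral wells for no effect and buffer without enzyme for full effect; nearly all actives have a fitted effect of over 40% in size; top concentration of the series not given in the record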
#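 Steps: dispense cruzain (1.5 nM final) in acetate buffer pH 5.5 with DTT and 0.01% Triton X-100; pin-transfer compounds; incubate 15 min RT; add Z-FR-AMC (2 uM final); read fluorescence every 30 s, using the 60 s intensity change.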
# 2A StopGo = FMDV 2A StopGo reporter, luciferase signal. human cells with a luciferase reporter of 2A StopGo recoding; control for the full effect not named in the record. Potency, µM (top dose mostly 57.9 µM), inactives show at the top dose signal change, negative = less light. hit rate 1.2% among 410,000. AID 1159524; active = well fitted falling curve with a large enough effect; inconclusive = small, poorly fitted or top-dose-only effect; inactive = no such curve, though single readings can be large or run the other way; tested in HEK293T cells; note: % is set by controls: 0 for no effect and ±100 for the full control effect; nearly all actives have a fitted effect of over 45% in size; luciferase light after 4 h
# * hit, by the source's call; ? = inconclusive; · = no result given; & = joins results of further samples; [ ] = another dose, or the depositor's remark. Unless noted, calls come from the whole dose curve; as a rule, active means well fitted rising curve with a large enough effect; inconclusive means small, poorly fitted or top-dose-only effect; inactive means no such curve, though single readings can be large or run the other way. Potency is the fitted concentration of half-maximal effect.
SMILES,LASV entry inh,NS1 inh,MARV entry inh,RE007 growth inh,SARS PLpro yeast,Cruzain noTriton,Cruzain inh Det,2A StopGo
O=C(c1cc(=O)c2ccccc2o1)N(Cc1ccccc1)C1CCS(=O)(=O)C1 (stereo not drawn),·,6%,·,-13%,-5%,·,·,15%
CCC1(c2ccccc2)NC(=O)N(CC(=O)Nc2ccc(Cl)c(S(=O)(=O)N3CCCCC3)c2)C1=O (stereo not drawn),-19%,·,?,-16%,2%,·,·,?
CCN(Cc1nc(-c2ccccc2)no1)C(=O)c1ccoc1C,·,-3%,0%[46.1 µM],5%,1%,·,·,-17%
C=Cc1ccc(N=Cc2c(O)ccc3ccccc23)cc1,-24%[46.1 µM],-6%,-21%[46.1 µM],-16%,-6%,·,·,-3%
Cc1ccc(OCC(=O)Nc2ccc(Cl)cc2C(=O)c2ccccc2)c(Br)c1,7%[46.1 µM],·,·,·,·,3%,-0.3%,-24%
CCc1noc(C)c1C(=O)N1CCN(S(=O)(=O)c2ccc(C)cc2)CC1,15%,·,8%[46.1 µM],16%,2%,·,·,-3%
CN1C=CC2=C(C#N)C(N)C(C#N)(C#N)[C@H](c3ccccc3)[C@H]2C1 (stereo partly drawn),-5%,5%,6%,-1%,16%,-7%,-13%,12%
OCCC1CN(Cc2cccc(F)c2F)CCN1CCc1ccccc1 (stereo not drawn),·,-11%,·,0%,-3%,·,·,-4%
COc1ccc(N2CS(=O)(=O)/C(=C/N(C)C)C2=O)cc1,4%,12%,-1%,-1%,-3%,7%,5.4%,48%[activator]
CCOc1ccc(CCNC(=O)CCn2c(=O)c3cccn3c3cccnc32)cc1,-2%[46.1 µM],·,·,·,·,10%,-0.7%,1%
COc1ccc(CCNC(=O)Nc2ccc3c(c2)OCO3)cc1OC,·,-2%,·,-14%,0%,·,·,13%
COc1cccc(N=Nc2c(N)[nH][nH]c2=O)c1,?,17%,1%,-11%,-6%,-11%,-5.7%,1%
Cc1cccc(-c2c(NC(=O)c3ccco3)oc3c(C)cccc3c2=O)c1,?,-7%,?,8%,0%,·,·,-12%
COC(=O)c1ccccc1NC(=O)c1ccc2c(c1)CCN2S(=O)(=O)c1ccc(Cl)cc1,-2%[46.1 µM],·,3%[46.1 µM],·,·,11%,0.5%,-19%
Cn1ccsc1=NC(=O)c1ccc(Cl)c([N+](=O)[O-])c1,·,2%,·,-13%,-1%,·,·,45%[activator]
OC(COc1ccc(Cl)cc1)CN1C2=NCCCN2c2ccccc21 (stereo not drawn),-9%,3%,?,-6%,-5%,7%,2.9%,-4%
CCOc1cc(NC(=O)C2CC2)c(OCC)cc1NC(=O)c1cccc(F)c1,·,-4%,-15%[46.1 µM],-7%,0%,·,·,3%
CCc1ccccc1NC(=O)CSc1nnc([C@@H](N)Cc2ccccc2)o1,12%,11%,-20%,-1%,-1%,10µM*,10µM*,-7%
O=C(NC1CCCC1)C1CC1c1ccccc1 (stereo not drawn),14%,-4%,-5%,-20%,-1%,-2%,1.8%,2%
COc1ccc(-n2c(-c3ccccc3)c[n+]3c2CCC3)cc1,?,0%,?,9%,2%,·,·,?
CNc1ccc(/C=C(\CCC(=O)O)c2nc3ccccc3s2)cc1[N+](=O)[O-],?,4%,-2%,2%,-45%,?,-15%,8%
CC(C)(C)c1csc(NC(=O)C2=COCCO2)n1,-26%,·,27%[46.1 µM],-10%,0%,·,·,18%
CC(C)[C@H](NC(=O)C1CCN(S(=O)(=O)c2ccc(F)cc2)CC1)C(=O)NCc1ccco1,·,1%,·,1%,24%,·,·,-6%
CCOC(=O)C1CCN(Cc2ccc3ccccc3c2)CC1,·,0%,·,2%,-4%,·,·,-14%
COc1ccc(C(=O)NC(C)CCc2ccccc2)c(OC)c1 (stereo not drawn),·,-35%,·,-3%,-4%,·,·,14%

# An excerpt from above in order of formula weight, falling.
SMILES,LASV entry inh,NS1 inh,MARV entry inh,RE007 growth inh,SARS PLpro yeast,Cruzain noTriton,Cruzain inh Det,2A StopGo
O=C(c1cc(=O)c2ccccc2o1)N(Cc1ccccc1)C1CCS(=O)(=O)C1 (stereo not drawn),·,6%,·,-13%,-5%,·,·,15%
CCc1noc(C)c1C(=O)N1CCN(S(=O)(=O)c2ccc(C)cc2)CC1,15%,·,8%[46.1 µM],16%,2%,·,·,-3%
C=Cc1ccc(N=Cc2c(O)ccc3ccccc23)cc1,-24%[46.1 µM],-6%,-21%[46.1 µM],-16%,-6%,·,·,-3%

# Full records from above.
# Shown for CCN(Cc1nc(-c2ccccc2)no1)C(=O)c1ccoc1C : LASV entry inh = ·; NS1 inh = -3%; MARV entry inh = 0%[46.1 µM]; RE007 growth inh = 5%; SARS PLpro yeast = 1%; Cruzain noTriton = ·; Cruzain inh Det = ·; 2A StopGo = -17%
# Shown for Cc1ccc(OCC(=O)Nc2ccc(Cl)cc2C(=O)c2ccccc2)c(Br)c1 : LASV entry inh = 7%[46.1 µM]; NS1 inh = ·; MARV entry inh = ·; RE007 growth inh = ·; SARS PLpro yeast = ·; Cruzain noTriton = 3%; Cruzain inh Det = -0.3%; 2A StopGo = -24%
# Shown for CC(C)(C)c1csc(NC(=O)C2=COCCO2)n1 : LASV entry inh = -26%; NS1 inh = ·; MARV entry inh = 27%[46.1 µM]; RE007 growth inh = -10%; SARS PLpro yeast = 0%; Cruzain noTriton = ·; Cruzain inh Det = ·; 2A StopGo = 18%

# (list continues)
SMILES,LASV entry inh,NS1 inh,MARV entry inh,RE007 growth inh,SARS PLpro yeast,Cruzain noTriton,Cruzain inh Det,2A StopGo
COc1ccc(C(O)C(CN2CCOCC2)c2ccccc2)cc1 (stereo not drawn),-29%,11%,?,18%,0%,10%,-7.9%,0%
Cc1cccc(CSCCNC(=O)CSCc2ccc([N+](=O)[O-])cc2)c1,-25%,-100%,?,0%,-16%,1%,-4.6%,-15%
COC(=O)c1cc(-c2ccc(Cl)cc2)n[nH]1,·,-3%,·,-18%,-2%,·,·,50%[activator]
CCCCn1c(NS(=O)(=O)c2ccc(C)cc2)c(S(=O)(=O)c2ccccc2)c2nc3ccccc3nc21,5%,6%,-2%,30%,-7%,-24%,-7.3%,-21%
NS(=O)(=O)c1cccc(NC(=O)CSc2nc3ccccc3c(=O)n2Cc2ccco2)c1,-20%[46.1 µM],·,?,-17%,3%,·,·,11%
CCc1ccccc1NC(=O)c1ccc2c(c1)CCN2S(C)(=O)=O,6%&7%[46.1 µM],10%,?,26%,1%,23%,2.7%,-6%&6%
CCN1CCCC1CNC(=O)c1ccc2c(c1)N(Cc1ccccc1F)C(=O)c1ccccc1S2(=O)=O (stereo not drawn),·,22%,·,-1%,20%,·,·,35%[activator]
COc1ccc(NC(=O)CN(C)C(=O)c2ccc(NS(=O)(=O)c3ccc(F)cc3)cc2)cc1,1%[46.1 µM],·,16%,17%,1%,·,·,-2%
Cc1ccc(SCC(=O)Nc2ccc(N3CCOCC3)cc2)cc1,·,1%,·,-5%,-2%,·,·,5%
Cc1ccc2oc(C(=O)Nc3ccc(S(=O)(=O)Nc4nccc(C)n4)cc3)cc(=O)c2c1,4%[46.1 µM],·,0%[46.1 µM],·,·,-10%,-3.0%,-16%
COc1cccc(C2SCC(=O)N2c2ccc(Br)cc2)c1OC (stereo not drawn),-6%,-6%,28%,-5%,17%,1%,-6.7%,?
Cc1ccccc1C(=O)OCCN(C)Cc1ccccc1,?,4%,13%[46.1 µM],-14%,1%,·,·,16%
NC(=O)Cn1c(=O)n(CC(=O)N2CCCCC2)c(=O)c2sccc21,·,3%,·,-1%,-2%,·,·,28%
Cc1ccc(C(=O)NC2CCCc3ccccc32)cc1[N+](=O)[O-] (stereo not drawn),?,-8%,?,-3%,-8%,·,·,19%
Cc1csc(NC(=O)CSc2nc(C)cs2)n1,24%,10%,12%[46.1 µM],-2%,1%,-13%,-3.0%,19%
O=C(Cc1coc(-c2ccc(F)cc2)n1)N1CCOCC1,?,12%,?,6%,-1%,4%,0.7%,32%[activator]
O=C(NNC(=O)c1ccccc1Br)c1ccc(Cl)c(Cl)c1,-4%,-16%,-2%[46.1 µM],0%,-7%,0%,1.7%,13%
COCC1CCN(C(=O)CC2C(=O)NCCN2Cc2cccc(Oc3ccccc3)c2)CC1 (stereo not drawn),·,7%,·,-9%,-1%,·,·,-16%
Cc1ccc(C(=O)NCC(=O)OCc2nnc(-c3ccc([N+](=O)[O-])cc3)o2)s1,-1%,·,27%,-3%,-3%,·,·,-12%
CS(=O)(=O)N1CCN(c2ccccc2NC(=O)c2cc3ccccc3o2)CC1,-20%,2%,?,14%,-4%,·,·,-23%
COc1cccc(N2C(=O)CSC23C(=O)N(CC(=O)NCc2ccc(C)cc2)c2ccccc23)c1 (stereo not drawn),4%[46.1 µM],·,·,·,·,-4%,-3.7%,7%
COCC(=O)N1c2nc(-c3ccco3)nn2C2(CCCCC2)[C@@H]2CCCC[C@@H]21,-12%[46.1 µM],·,-19%[46.1 µM],·,·,12%,-2.2%,1%
CC(NC(=O)COC(=O)/C=C/c1cccc(F)c1)c1ccccc1 (stereo not drawn),7%,·,?,-6%,-1%,·,·,-13%
CC(N=C1NS(=O)(=O)c2ccccc21)C(=O)NCc1ccncc1 (stereo not drawn),-1%,·,-16%[46.1 µM],9%,-3%,·,·,-22%

# Screens: PubChem BioAssay, National Center for Advancing Translational Sciences (NCATS)
